GIV-Gai inh – inhibitors of GIV peptide binding to Galpha-i3, primary screen, biochemical, fluorescence polarization, FITC-GIV GBA peptide, rat Galphai3; Guanine nucleotide-binding protein G(i) subunit alpha-3 (Rattus norvegicus), P08753; 90 min; hits give low values; scaled: aluminum fluoride 0%, vehicle 100%; percent of control (FP), % (no concentration beside the values); 0.42% of 210,000 active;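 active = replicate mean at 85% of control or lower, very high polarization wells dropped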;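 also: wells of about 15 µL received 100 nL stock; the first replicate is given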
Target sequence (P08753 whole entry, looked up): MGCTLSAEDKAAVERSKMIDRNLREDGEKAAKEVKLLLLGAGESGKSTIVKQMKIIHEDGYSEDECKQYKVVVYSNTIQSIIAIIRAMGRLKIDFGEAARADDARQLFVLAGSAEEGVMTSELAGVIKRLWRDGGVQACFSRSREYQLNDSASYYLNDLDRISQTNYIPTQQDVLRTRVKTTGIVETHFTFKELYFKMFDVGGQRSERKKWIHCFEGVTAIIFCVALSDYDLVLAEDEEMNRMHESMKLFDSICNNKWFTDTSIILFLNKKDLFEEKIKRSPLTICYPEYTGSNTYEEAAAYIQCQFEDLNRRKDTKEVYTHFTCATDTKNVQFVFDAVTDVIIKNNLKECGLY
Sa growth 42C – S. aureus growth inhibition at 42 and 30 °C, primary screen, LtaS inhibitor project, RN4220, two temperatures. AID 720641, 2013. relative growth, % (concentration not given with the values). OD600, 20 h, 42 °C; hits give low values. 0.53% of 170,000 active;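 active = growth at 42 °C up to 50% and 20 or more points under that at 30 °C, or under 10% at both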;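 also: 300 nL library stock went into each well; scaled to the means of positive and negative controls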
HCMV UL50-53 inh – inhibitors of HCMV UL50-UL53 interaction, biochemical, HTRF; AID 1918969, 2023; 0.15% of 190,000 active; HCMV UL50-UL53 nuclear egress complex (human cytomegalovirus); inhibition, % (test concentration not listed); normalized percent inhibition;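 active = both replicates at 50% or more, plus weaker picks with an unusually low signal ratio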;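 also: stock transfer was 100 nL into about 20 µL; 0% = negative control wells and 100% = wells with untagged competitor protein; inactives centre near -12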
Sa growth 42C second temp – second read-out of Sa growth 42C, no call of its own (marks repeat the call); relative growth, %; measured here: growth at 30 °C;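 optical density after 20 h as mean of two plates; 100% = untreated growth and lower means inhibition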
Active calls of the source: *; . = not tested or not shown.

Start of the data: the first 2 records, ahead of the listing:
| smiles | GIV-Gai inh | Sa growth 42C | Sa growth 42C second temp | HCMV UL50-53 inh |
| --- | --- | --- | --- | --- |
| CCOC(=O)c1oc2ccc(S(=O)(=O)N3CCC(c4nnc(-c5ccc(OC)cc5)o4)CC3)cc2c1C | 102 | 107 | 97 | 4 |
| Cc1cc(C)c2c(-n3cccc3)nn(CCCC(=O)Nc3ccc(Cl)cc3)c2n1 | 108 | . | . | -30 |

Main list, from the first entry:
| smiles | GIV-Gai inh | Sa growth 42C | Sa growth 42C second temp | HCMV UL50-53 inh |
| --- | --- | --- | --- | --- |
| CCOC(=O)c1oc2ccc(S(=O)(=O)N3CCC(c4nnc(-c5ccc(OC)cc5)o4)CC3)cc2c1C | 102 | 107 | 97 | 4 |
| Cc1cc(C)c2c(-n3cccc3)nn(CCCC(=O)Nc3ccc(Cl)cc3)c2n1 | 108 | . | . | -30 |
| Cc1ccc(C)c(S(=O)(=O)c2nnn3c2nc(N2CCOCC2)c2sccc23)c1 | 110 | 94 | 85 | . |
| CC1CC(N(C(=O)C2CC2)c2ccccc2)c2ccccc2N1C(=O)C1CC1 (stereo not drawn) | 106 | . | . | 6 |
| COc1cccc(NC(=O)Cn2ncc3c4ccccc4n(Cc4ccccc4)c3c2=O)c1 | 105 | 99 | 86 | . |
| COc1cc(OC)c(NC(=O)NCCc2nc3cccnc3n2-c2ccccc2)cc1Cl | 106 | . | . | -10 |
| COc1ccc(S(=O)(=O)N(CC(=O)Nc2cc(C)cc(C)c2)c2ccc(Cl)cc2)cc1 | 104 | 105 | 87 | -4 |
| C/C=N/NC(=O)c1ccccc1 | 94 | 88 | 104 | -2 |
| Cc1cccc(Cn2cccc2CNS(=O)(=O)c2ccccc2F)c1 | 106 | 101 | 85 | . |
| C=C(C)Cn1c(CCCN2CCCCC2)nc2ccccc21 | 110 | . | . | -15 |
| COC(=O)c1c(C)oc(C)c(C(=O)OC)c1=O | . | 101 | 96 | -15 |
| CC1CCN(C(=O)c2cc(Cl)nc3ccccc23)CC1 | 100 | 102 | 79 | . |
| COc1cccc(CSc2ccc(S(=O)(=O)N3CCOCC3)cc2C(=O)N2CCC3(CC2)OCCO3)c1OC | 99 | . | . | -5 |
| Cc1cccc(NC(=O)CCCCCn2c(=O)[nH]c3ccsc3c2=O)c1 | 108 | 91 | 94 | -2 |
| Fc1ccc2c(c1)-c1nocc1CS2 | 102 | 92 | 79 | -36 |
| Cc1ccc(-c2cnc(NCc3c(F)cccc3Cl)n2C)cc1 | 108 | 80 | 51 | -12 |
| Cc1nnn(C23CC4CC(CC(C(=O)O)(C4)C2)C3)n1 | 99 | 98 | 74 | -18 |
| O=c1c2ccccc2c(-c2cc(C(F)(F)F)cc(C(F)(F)F)c2)nn1CCO | 103 | 95 | 90 | -19 |
| CCOC(=O)CC1C(=O)NCCN1Cc1ccoc1 (stereo not drawn) | 98 | . | . | 17 |
| C=C1N(c2ccc(Cl)cc2)C(=O)OC12CCCCC2 | . | 98 | 94 | -10 |
| O=C(OCCCn1c(=O)[nH]c2ccccc21)c1ccc2c(=O)n3c(nc2c1)CCCCC3 | . | 103 | 87 | -10 |
| O=C1Nc2cc(C(=O)N3CCOCC3)ccc2N2CCCCC12 (stereo not drawn) | 103 | . | . | -41 |
| CN(C)S(=O)(=O)c1cccc(CSc2n[nH]c(-c3cccs3)n2)c1 | . | 112 | 96 | -9 |
| Cc1cc(C)nc(N2CCN(c3cc(C)nc4c(-c5ccc(F)cc5)c(C(F)(F)F)nn34)CC2)n1 | 98 | . | . | -16 |
| CCCNC(=O)c1sc(-n2nc(C)c(Cc3ccccc3)c2C)nc1C | 96 | . | . | -1 |
| CC(C)CSC1=NSC2=NC(=O)/C(=C\c3ccc(SCc4ccco4)o3)C(=N)N12 | 178 | 70 | 33 | -17 |
| CCCn1c2ccccc2c2nnc(SCC(=O)Nc3ccc4c(c3)OCCO4)nc21 | 102 | 122 | 80 | -5 |
| CCN(CCS(=O)(=O)c1ccc(Cl)cc1)S(=O)(=O)c1ccc(Cl)cc1 | 105 | 125 | 85 | -14 |
| CN(C)c1ncc(C(=O)Nc2cccc(F)c2)cn1 | 102 | . | . | -12 |
| CC1CN(C(=O)c2ccc(N)cc2)CC(C)O1 (stereo not drawn) | . | 91 | 94 | -7 |
| Cc1ccc(C(=O)N2CCC(c3c[nH]c4ccccc34)(c3c[nH]c4ccccc34)CC2)cc1 | 101 | 64 | 45 | -23 |
| COc1ccccc1NC(=O)CSc1cc(=O)n(C)c2ccccc12 | 99 | 87 | 71 | -19 |
| Cc1ccc(N(Cc2nc3nc(C)cc(C)n3n2)C(=O)c2ccccc2F)cc1 | 99 | . | . | -8 |
| CC(=O)N1c2ccc(S(=O)(=O)N3CCN(c4ccc(C)cc4C)CC3)cc2CC1C (stereo not drawn) | 102 | 97 | 107 | . |
| O=C(CS(=O)(=O)Cc1ccccc1)Nc1cc(F)cc(F)c1 | 97 | 100 | 99 | -40 |
| CCOC(=O)c1cc(S(=O)(=O)N2CCCC2C(=O)NC(C)(C)CC)cn1C (stereo not drawn) | 108 | . | . | -11 |
| CCOC(=O)c1nc(NCCCN2CCN(c3cc(C)ccc3C)CC2)c2ccccc2n1 | 109 | 105 | 83 | -26 |
| Cc1cc(C(=O)CSc2nc3ccccc3c(=O)[nH]2)c(C)n1C | . | 100 | 93 | -10 |
| Cc1ccc(Nc2nnc(C3C(=O)N(C)C4(C)CC3c3cc(Br)ccc3O4)s2)cc1 (stereo not drawn) | 103 | 112 | 96 | . |
| COC(=O)c1ccc(OCC(=O)c2ccc[nH]2)cc1 | . | 106 | 93 | -17 |
| COc1cccc(NC(=O)c2oc3ccc(S(=O)(=O)N(C)C4CCCCC4)cc3c2C)c1 | 104 | 124 | 100 | . |
| COc1ccc2c(c1)nnc1n[nH]c(=O)n12 | 95 | 89 | 60 | -136 |
| Cc1cc(Cl)ccc1OCCSc1nnc(-c2cccs2)o1 | 98 | 86 | 70 | -12 |
| COC(=O)c1ccsc1NC(=O)c1cccc(C)c1 | 65* | 87 | 83 | -26 |
| CCCN(CCC)C(=O)Cn1c(=O)n(-c2ccccc2)c(=O)c2c3c(sc21)CCCC3 | 110 | 112 | 96 | -18 |
| CN(c1ccc(C(=O)N2CCc3ccccc3C2)cc1)S(C)(=O)=O | 102 | 110 | 79 | -8 |
| Cc1ccc2c(c1)-c1onc(C(=O)NC3CC3)c1CO2 | 106 | . | . | -20 |
| CCc1ccccc1NC(=O)NCCN1CCN(c2ccccc2)CC1 | 102 | 112 | 95 | . |
| Cc1c(-c2csc(-c3ccno3)n2)sc2ccccc12 | 101 | 116 | 51 | -3 |
| Cc1cc(C)c2c(n1)SCCN2C(=O)CCC(=O)NCC1CCCO1 (stereo not drawn) | 101 | . | . | 2 |
| CCOC(=O)N1CCC(NCC(O)COc2ccccc2C(C)C)CC1 (stereo not drawn) | . | 100 | 90 | -24 |
| COc1cccc(-c2ocnc2C(=O)NC2CCc3ccccc32)c1 (stereo not drawn) | 98 | 101 | 79 | -25 |
| CCOC(=O)NCc1n[nH]c(=O)c2ccccc12 | 102 | 80 | 87 | -37 |
| CC(C)CCNC(=O)CSCc1cnn(-c2ccccc2)c1-n1cccc1 | 98 | 109 | 88 | -13 |
| CC1CCN(CC(=O)Nc2ccc3ccccc3c2)CC1 | 104 | 106 | 84 | -18 |
| Cc1ccc(-c2nnc(Nc3cccc(O)c3)c3ccccc23)cc1S(=O)(=O)N1CCOCC1 | 105 | 117 | 78 | -32 |

Going on with the list.
| smiles | GIV-Gai inh | Sa growth 42C | Sa growth 42C second temp | HCMV UL50-53 inh |
| --- | --- | --- | --- | --- |
| COc1ccc(C)cc1NC(=O)COCc1cc(-c2ccc(F)cc2)on1 | 104 | 104 | 89 | . |
| CC(=O)N1CCC(N(CCCN2CCC(C)CC2)C(=O)Nc2ccc(Br)c(C)c2)CC1 | 103 | 103 | 87 | 5 |
| CC(=O)NCCn1c(SCC(=O)OCc2ccccc2)nc2ccccc2c1=O | 103 | 116 | 87 | 6 |
| CCn1cc2nc(SCc3cc(C)ccc3C)n(Cc3ccc(Cl)cc3)c(=O)c2n1 | 98 | 98 | 86 | . |
| CCCCN(C)S(=O)(=O)c1cc2c(cc1C)N(C(C)=O)CCO2 | 97 | 83 | 85 | -26 |
| O=C(NCc1ccco1)c1cc(-c2ccc(F)cc2)nc2ccccc12 | . | 122 | 81 | -37 |
| CCC(=O)Nc1nn2c(-c3ccccc3)nnc2s1 | 105 | . | . | -9 |
| COc1ccc(Cc2nc3ccc(C(=O)NCc4cc(Br)ccc4OC)cc3o2)cc1 | 103 | 92 | 87 | . |
| CC(Oc1ccc(C(C)(C)C)cc1)c1nc(-c2ccncc2)no1 (stereo not drawn) | 102 | . | . | -28 |
| CCc1ccc(CNc2ncc(-c3cccc(OC)c3)n2C)cc1 | 104 | 98 | 72 | 1 |
| COC(=O)c1sc(=S)n(-c2ccccc2)c1C | 110 | 87 | 87 | 2 |
| O=C(CCCc1nc2cccnc2n1C1CCN(Cc2ccccc2)CC1)NC1CCCCC1 | 101 | . | . | 13 |
| Cc1cn2c(=O)cc(COc3ccccc3NC(=O)c3ccc(Cl)cc3)nc2s1 | 101 | 104 | 90 | -27 |
| CCOc1ccc2nc(SCC(=O)N(C)C)[nH]c2c1 | . | 152 | 87 | -26 |
| Cc1cc(N2CCC(C(=O)Nc3ccc(F)cc3F)CC2)n2nc(C)c(-c3ccc(Cl)cc3)c2n1 | 104 | 96 | 95 | -32 |
| COc1ccc(-c2cc(C(F)(F)F)nc(N3CCOCC3)n2)cc1 | 100 | 104 | 87 | . |
| N=c1c(C(=O)NCC2CCCO2)cc2c(=O)n3ccccc3nc2n1CCCN1CCOCC1 (stereo not drawn) | 105 | 99 | 88 | . |
| Cc1nc2ccccc2c(=O)n1-c1ccc(NC(=O)c2cccc([N+](=O)[O-])c2)cc1 | 96 | 104 | 86 | . |
| CC(C)(C)Oc1ncc(Br)c(OC(C)(C)C)n1 | 105 | 100 | 93 | -7 |
| O=C(NCc1ccccc1)C(NS(=O)(=O)c1cccs1)c1ccccc1 (stereo not drawn) | 107 | 111 | 75 | . |
| O=C(NCCCc1nc2ccccc2n1Cc1ccccc1)C1CCCCC1 | 106 | 104 | 81 | -15 |
| Cc1c(C(=O)OCC(=O)c2ccc[nH]2)sc2nc3n(c(=O)c12)CCC3 | . | 103 | 92 | -32 |
| CCN(CC)S(=O)(=O)c1cccc(C(=O)N(Cc2cccs2)CC2CCCO2)c1 (stereo not drawn) | . | 86 | 89 | -24 |
| Cc1cccc(-n2c(SCc3c(C)noc3C)nc3ccccc3c2=O)c1 | . | 110 | 98 | 8 |
| COc1cc(NC(=O)COc2cc(C)ccc2C)c(C(=O)O)cc1OC | 99 | 91 | 81 | -3 |
| Fc1ccccc1-c1nnc(-c2ccc(OC(F)(F)F)cc2)o1 | 106 | 108 | 58 | 2 |
| CCCSc1oc(-c2ccco2)nc1S(=O)(=O)c1ccc(Cl)cc1 | 107 | 85 | 81 | -4 |
| CC1CC1C(=O)OCC(=O)Nc1ccc(F)cc1 (stereo not drawn) | . | 72 | 91 | -8 |
| CCCCCCCCCCCCCCCCCCN(CCCCCCCCCCCCCCCCCC)CCCN(CCO)CCO | 104 | . | . | -41 |
| Cc1ccc2c(c1)c1c(c(=O)n(Cc3ccccc3)c(=O)n1CC(=O)Nc1ccccc1F)n2C | 104 | 105 | 82 | . |
| COc1cc(NC(=O)N2CCC(CN3CCc4ccccc4C3)CC2)cc(OC)c1 | 106 | 110 | 92 | . |
| CC1(C)SC(c2ccc(C3NC(C(=O)O)C(C)(C)S3)cc2)NC1C(=O)O (stereo not drawn) | 108 | 92 | 100 | -18 |

Entries of single compounds as entered above. Order of screens: GIV-Gai inh | Sa growth 42C | Sa growth 42C second temp | HCMV UL50-53 inh
CC1CC1C(=O)OCC(=O)Nc1ccc(F)cc1 (stereo not drawn) across the screens: . | 72 | 91 | -8
COc1cc(NC(=O)N2CCC(CN3CCc4ccccc4C3)CC2)cc(OC)c1 across the screens: 106 | 110 | 92 | .
CCCSc1oc(-c2ccco2)nc1S(=O)(=O)c1ccc(Cl)cc1 across the screens: 107 | 85 | 81 | -4
Fc1ccccc1-c1nnc(-c2ccc(OC(F)(F)F)cc2)o1 across the screens: 106 | 108 | 58 | 2
COc1cc(NC(=O)COc2cc(C)ccc2C)c(C(=O)O)cc1OC across the screens: 99 | 91 | 81 | -3

The listing continues.
| smiles | GIV-Gai inh | Sa growth 42C | Sa growth 42C second temp | HCMV UL50-53 inh |
| --- | --- | --- | --- | --- |
| Cc1nn(CC(=O)N2CCN(c3ccccn3)CC2)c(=O)c2noc(C)c12 | 96 | . | . | -24 |
| CCc1ccc(Nc2nc3ccccc3c3nnc(C)n23)cc1 | 102 | 98 | 83 | . |
| CCCc1cc(=O)[nH]c(SCc2nc(-c3ccc(C)cc3)no2)n1 | 99 | 84 | 85 | . |
| Cc1cccc(N2CCN(C(=O)C3CCN(C(=O)c4cc5sccc5n4C)CC3)CC2)c1C | 102 | 97 | 48 | -18 |
| CCOC(=O)C1CCN(C(=O)c2ccc(C)c(NC(=O)c3nsc4ccccc34)c2)CC1 | 108 | 90 | 84 | . |
| O=C(Nc1nccs1)c1ccc(-c2ccc(Cl)cc2)o1 | 102 | 119 | 49 | -8 |
| CC1CCC(C(C)C)C(OC(=O)C[n+]2ccsc2N)C1 (stereo not drawn) | . | 110 | 87 | -13 |
| CC(C)CCNC(=O)C1(C)Cn2c(nc3ccccc32)C(=O)N1Cc1ccccc1Cl (stereo not drawn) | 99 | . | . | 9 |

Bioassay records from PubChem BioAssay.
